Bioassay records as filed in PubChem BioAssay.
KCNQ2 pot = enhances the rat KCNQ2 potassium channel; CHO-K1 KCNQ2, FluxOR thallium flux fluorescence; stronger effect = higher value; B-score at 10 µM; 0.54% of 310,000 active;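 active = fluorescence ratio B-score at least 3 SD of library B-scores, with initial fluorescence B-score within 3 SD, cut at about 5.3 in these data; same plate scores as AID 2156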;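 also: B-score of peak minus minimum over baseline fluorescence ratio after K+ and Tl+ stimulus; positive B-score means potentiation of KCNQ2 with more thallium influx and brighter signal; only the inactives scoring about 0 or higher are listed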
Target sequence (O88943 whole entry, looked up): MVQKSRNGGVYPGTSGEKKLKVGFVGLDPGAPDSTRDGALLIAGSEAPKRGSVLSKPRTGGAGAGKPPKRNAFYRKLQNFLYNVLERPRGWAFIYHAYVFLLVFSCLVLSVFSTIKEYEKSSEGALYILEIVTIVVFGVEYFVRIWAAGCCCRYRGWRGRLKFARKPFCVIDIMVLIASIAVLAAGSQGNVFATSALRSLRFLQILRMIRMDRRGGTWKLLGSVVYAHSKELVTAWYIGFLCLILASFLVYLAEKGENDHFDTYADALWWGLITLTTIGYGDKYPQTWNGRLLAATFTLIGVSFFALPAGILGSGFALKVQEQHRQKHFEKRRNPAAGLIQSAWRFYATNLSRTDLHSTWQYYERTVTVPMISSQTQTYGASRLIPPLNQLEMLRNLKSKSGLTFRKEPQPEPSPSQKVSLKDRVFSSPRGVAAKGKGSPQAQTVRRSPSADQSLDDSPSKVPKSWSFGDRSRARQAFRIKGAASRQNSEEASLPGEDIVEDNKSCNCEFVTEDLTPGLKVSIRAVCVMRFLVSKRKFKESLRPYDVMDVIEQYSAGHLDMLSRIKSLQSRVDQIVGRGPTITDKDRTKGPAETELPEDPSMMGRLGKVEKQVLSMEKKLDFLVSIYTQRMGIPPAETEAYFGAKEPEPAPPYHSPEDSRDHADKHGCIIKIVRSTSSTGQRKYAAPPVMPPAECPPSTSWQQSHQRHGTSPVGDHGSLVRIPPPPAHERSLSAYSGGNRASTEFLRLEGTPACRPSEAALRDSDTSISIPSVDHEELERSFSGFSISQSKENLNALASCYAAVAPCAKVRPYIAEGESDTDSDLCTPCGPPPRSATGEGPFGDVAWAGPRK
KCNQ2 pot baseline = recorded beside KCNQ2 pot, whose call it bears; B-score; compound at 10 µM; measured here: initial fluorescence intensity artifact check;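 brightness before thallium and not channel activity; 0 = typical well and far values either way flag optical interference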
An asterisk follows results filed as active. A portion of the library (hit frequency here may not be typical).

Fields – KCNQ2 pot, KCNQ2 pot baseline
> CCOc1ccc(CN(C(=O)c2ccco2)C2CCS(=O)(=O)C2)cc1 (stereo not given)
→ 0.49, 0.83
> CCOC(=O)N1CCN(C(=O)COc2cc(=O)n(C)c3ccccc23)CC1
→ 0.78, -0.64
> CN(C)S(=O)(=O)c1ccc(Cl)c(C(=O)NCCNC(=O)c2cc(S(=O)(=O)N(C)C)ccc2Cl)c1
→ 0.04, -0.1
> CC(=O)Nc1ccc(C(=O)NNC(=O)C2CC2)cc1
→ 0.4, 0.31
> COc1cccc(Nc2nc(N)nc(-c3oc4ccccc4c3C)n2)c1
→ 0.56, 0.07
> CCc1nnc(NS(=O)(=O)c2ccc(NC(=O)COc3ccc4ccccc4c3)cc2)s1
→ 2.23, -1.56
> CCCCc1c(C)c2ccc(OC)c(/C(C)=N\O)c2oc1=O
→ 0.13, -1.93
> COc1ccc(-c2nn(CCC(=O)O)cc2/C=C/C(=O)O)cc1[N+](=O)[O-]
→ 0.72, -0.53
> Cc1ccc(Cl)cc1NS(=O)(=O)c1c(C)[nH]c(=O)[nH]c1=O
→ 0.81, 1.61
> CCOC(=O)C1(CCOC)CCN(C(=O)Cc2ccc3ccccc3c2)CC1
→ 0.53, 1.37
> Cc1ccc(CNC(=O)c2ccc(N(C)C)cc2)cc1
→ 0.89, 0.53
> N#C/C(=C\Nc1ccc(F)c(Cl)c1)C(=O)C1CC1
→ 1.12, -0.2
> O=C(Nc1ccnc(-c2ccncc2)n1)c1ccccc1Cl
→ 0.64, 1.53
> COC(=O)C1=C(C)NC2=C(C(=O)C(C(=O)OC)C(c3ccc(OC)cc3)C2)C1c1ccccn1 (stereo not given)
→ 2.51, 0.46
> CCn1cc(CNC(=O)CCc2ccc(OC)cc2)cn1
→ 0.44, 0.35
> CCCN1C2CCCC1CC(NC(=O)NC1CCCCC1)C2 (stereo not given)
→ 0.48, -0.43
> CCOC(=O)c1c(C)n(C)c2ccc(O)c(S(=O)(=O)c3ccccc3)c12
→ 0.02, -1.68
> O=C(COc1ccccc1)Nc1ccc(-c2nnc(-c3ccco3)o2)cc1
→ 0.59, -0.58
> CN1C(C(=O)Nc2cccc(O)c2)=CC(c2cccs2)=NS1(=O)=O
→ 0.19, 2.1
> CCOC(=O)COc1cccc2c(=O)n(CC(N)=O)ccc12
→ 0.19, 1.57
> CC1=CC2=NC(=O)CC(C)(C(=O)N(CC(=O)NC(C)(C)C)Cc3cccs3)N2C=C1 (stereo not given)
→ 1.13, -1.16
> CCOC(=O)c1cc(-c2ccc3c(c2)OCCO3)n[nH]1
→ 0.01, 0.77
> O=C(NCCNc1nccc(C(F)(F)F)n1)c1cccc(C(F)(F)F)c1
→ 1.02, -1.26
> CC(C)(C)OC(=O)NC(Cc1ccccc1)C(=O)O (stereo not given)
→ 0.6, 1.2
> Cc1cccc(NC(=O)CSCc2cc(=O)n3nc(C4CC4)sc3n2)c1
→ 0.02, -0.01
> COc1ccc(C2=NN(C(=O)CCC(=O)O)C(c3ccc(OC)c(OC)c3)C2)cc1 (stereo not given)
→ 0.07, 1.65
> CC(=O)c1ccc(N2CCN(C(=O)COc3ccc4c(c3)CCC4)CC2)cc1
→ 0.61, 0.25
> COc1ccc(NC(=S)N2CCN(C(=O)c3ccccc3)CC2)cc1
→ 0.4, 0.36
> Cc1ccc(C)c(NC(=O)CN(C)S(=O)(=O)c2cccc3cccnc23)c1
→ 0.4, 0.53
> CN(C)/C(CN1CCOCC1)=C1\N=C(c2ccccc2)OC1=O
→ 0.19, 0.37

Grouped by structure, the compounds so far with a tert-butyl group (two)
Fields – KCNQ2 pot, KCNQ2 pot baseline
> CC1=CC2=NC(=O)CC(C)(C(=O)N(CC(=O)NC(C)(C)C)Cc3cccs3)N2C=C1 (stereo not given)
→ 1.13, -1.16
> CC(C)(C)OC(=O)NC(Cc1ccccc1)C(=O)O (stereo not given)
→ 0.6, 1.2

(cont.)
Fields – KCNQ2 pot, KCNQ2 pot baseline
> CCOC(=O)c1ccccc1-c1csc(N)n1
→ 1.21, -0.98
> Cc1cc(NC(=O)Cc2ccccc2C)no1
→ 1.32, 0.18
> Clc1ccc(-c2nc3n(n2)Cc2ccccc2-3)cc1
→ 0.27, -0.14
> CN(C)CCNC(=O)Nc1ccc([N+](=O)[O-])cc1
→ 2.53, -0.87
> Cc1cc(-c2nnc(SCC(=O)Nc3ccccc3F)n2N)n[nH]1
→ 1.57, 0.17
> CCc1cc2c(=O)oc(-c3ccc(F)cc3)nc2s1
→ 0.07, -0.23
> Cc1cc(NC(=O)CSCC(=O)OC(C)C(=O)N(C)Cc2ccccc2)no1 (stereo not given)
→ 1.34, -0.24
> COc1ccc(S(=O)(=O)N2CCCC2)cc1C(=O)N1CCOCC1
→ 0.01, -2.27
> Cc1ccc2c(c1)N(CC(=O)NCCCN1CCCCC1C)C(=O)c1cccnc1O2 (stereo not given)
→ 0.1, 1.2
> Cc1ccc(-c2nnc(N(C)C(=O)c3ccncc3)s2)cn1
→ 1.54, -0.14
> O=C(CCc1nnc(Cc2ccc3c(c2)OCO3)o1)N(CC1CCC1)CC1CCCO1 (stereo not given)
→ 0.22, 1.89
> COc1cc(Cl)c(C)cc1NC(=S)NN
→ 0.04, 0.31
> O=C(N/N=C/c1ccc2nccnc2c1)c1ccccc1O
→ 1.47, 0.84
> COc1ccc(N=Nc2n(C)c3ccccc3[n+]2C)cc1
→ 0.41, -2.44
> Cc1ccnc(N2CCCC(C(=O)Nc3nnc(C)s3)C2)n1 (stereo not given)
→ 0.16, -2
> Cc1nn(Cc2ccc([N+](=O)[O-])cc2)c(=O)n1-c1ccccc1
→ 0.03, -0.72
> CCNS(=O)(=O)c1ccc(CCC(=O)NCc2ccccn2)cc1
→ 0.01, -0.48
> CCOC(=O)c1c(C)[nH]c(C(=O)OCc2ccc(F)cc2)c1C
→ 1.2, -0.63
> COc1ccc(NC(=S)N2CCN(C(=O)c3ccco3)CC2)cc1
→ 0.58, -0.79
> O=C(NCc1ccco1)c1ccc(Cl)c(S(=O)(=O)N2CCc3ccccc32)c1
→ 0.94, -1.41
> CC(C)(C)NC(=O)CN(C(=O)CNC(=O)c1cccs1)c1ccccc1F
→ 0.49, -0.52
> NC(N)=NS(=O)(=O)c1ccc(NC(=S)NC(=O)c2ccc(Br)cc2)cc1
→ 1.38, -1.51
> CCOc1ccc(CO/N=C/c2c(C)[nH]c(=O)[nH]c2=O)cc1
→ 1.77, 1.8
> CC1(O)C(=O)C=C2C=C(C3CC3)OC=C2C1=O (stereo not given)
→ 0.06, 0.55
> COc1ccc(CSCC(=O)NN=C2CCN(C)CC2)cc1
→ 0.31, 3.05
> CC(=O)c1sc(NC(=O)C(C)Oc2ccc3c(C)cc(=O)oc3c2)nc1C (stereo not given)
→ 0.01, 0.68
> CC(C)(CN1CCN(Cc2ccccc2)CC1)NS(=O)(=O)c1ccc(Cl)cc1
→ 2.1, -0.32
> COc1ccc(CNC(=O)C2CCC(CNS(=O)(=O)c3cccs3)CC2)cc1 (stereo not given)
→ 0.05, 0.73
> Clc1ccc(-n2c(SC/C=C/c3ccccc3)nnc2-c2cccnc2)cc1
→ 0.56, -0.03
> Cc1ccc(-c2c(C)sc(NC(=O)C3C4CCC(O4)C3C(=O)O)c2C(=O)OC(C)C)cc1 (stereo not given)
→ 0.75, 0.05
> CCN(C(=O)COC(=O)c1cccc(S(=O)(=O)N2CCOCC2)c1)C1CCS(=O)(=O)C1 (stereo not given)
→ 0.44, -0.94
> CC(=O)N1c2c(cc(Br)cc2S(=O)(=O)NCc2ccc(C)cc2)CC1C (stereo not given)
→ 0.32, 2.08
> O=C(CCC(=O)N/N=C/c1ccco1)N/N=C/c1ccco1
→ 1.95, -0.73
> CC1CC(=O)N(CC(=O)Nc2ccc(Br)cc2)c2ccccc2S1(=O)=O (stereo not given)
→ 0.02, -0.29
> COc1ccc(CN=C(C#N)C2=C(O)c3ccccc3C2=O)cc1
→ 0.84, -0.99
> CCN(CC)CCNc1ncnc2c1sc1nc(N3CCOCC3)c3c(c12)CCCC3
→ 3.37, -3.35
> CC(=O)c1cccc(N(CC(=O)NC2CCCCC2)C(=O)c2csnn2)c1
→ 0.61, 0.88
> Cc1nc2ccccc2c2oc(C(=O)NCCCN3CCCC3=O)cc12
→ 0.13, -0.1
> N#CC1=C(N)Oc2c(ccc3ccccc23)C1c1cccs1 (stereo not given)
→ 0.8, 0.78
> Cc1cc2ccccc2c(=O)n1CC(=O)Nc1ccc2c(c1)OCCO2
→ 1.56, 0.93
> CCOc1ccc(C(=O)Nc2nnc(NC(=S)Nc3ccccc3)s2)cc1
→ 0.75, -2.11
> COCCN(Cc1cc2cc3c(cc2nc1Cl)OCO3)C(=O)c1cccc(C)c1
→ 0.85, -0.38
> COC(=O)c1ccc(NC(=O)C(=O)c2cn(CC(=O)N3CCOCC3)c3ccccc23)cc1
→ 0.66, 0.02
> NC(=O)c1nsc(C(=O)N(Cc2cccnc2)C(C(=O)NCc2ccc(F)cc2)c2ccc(O)cc2)c1N (stereo not given)
→ 1.35, 0.95
> COC(=O)c1nn(-c2ccccc2)c(Cl)c1/C=N/OCc1ccc(C)cc1
→ 0.24, -0.01
> O=C(COc1ccc(Cl)cc1)Nc1cc2c3c(c1)CC(=O)N3CCC2
→ 1.86, -0.18
> Cc1nnc(SCC(=O)NC2CCCc3c2cnn3-c2ccccc2F)o1 (stereo not given)
→ 0.17, -2.74
> COc1cc(C(=O)OCCCN2CCOCC2)ccc1O
→ 0.67, 0.91
> CN(C(=O)C12CC3CC(CC(C3)C1)C2)C1CCS(=O)(=O)C1 (stereo not given)
→ 0.02, -0.58
> COc1ccc2cc(CN(CC3COCCO3)S(=O)(=O)c3ccccc3)c(=O)[nH]c2c1 (stereo not given)
→ 1.01, -1.1
> CC(C)CN(CC(C)C)C(=O)CN1c2cccc3cccc(c23)S1(=O)=O
→ 0.07, -0.02
> CCOC(=O)N1CCN(CC(=O)Nc2cc(OC)c(OC)cc2C#N)CC1
→ 0.01, 0.92
> COc1ccc(N(C)S(=O)(=O)c2cccc(C(=O)OCC(=O)NCc3ccccc3OC)c2)cc1
→ 3.6, -0.82
> CCSc1nc(O)c(C(c2cccc(OC)c2)c2c(O)nc(SCC)[nH]c2=O)c(=O)[nH]1
→ 1.14, -0.08
> COc1ccccc1CN1CC(C(=O)NCc2nc3ccccc3n2C)CCC1=O (stereo not given)
→ 0.62, 0.12
> COc1cccc(OCCSc2nc(N)cc(N)n2)c1
→ 1.1, -1.57
> CCNc1c(NCC)c(=O)c1=O
→ 1.47, 0.01
> Cn1c(SCC(=O)Nc2nc(C(C)(C)C)cs2)nnc1C1CC1
→ 0.01, -0.54
> Cc1nnc(Nc2ccccn2)c2ccccc12
→ 0.78, 2.84
> O=C(Nc1ccncc1)c1ccc(Br)cc1
→ 0.49, -0.12

Following part
Fields – KCNQ2 pot, KCNQ2 pot baseline
> CC(=O)N1CCCN(C(=O)c2ccc3nc(Cc4cccc(Cl)c4)oc3c2)CC1
→ 0.24, -0.01
> O=C(Nc1nnc(SCc2ccccc2)s1)c1ccco1
→ 1.02, -0.2
> O=C(CC(NS(=O)(=O)c1ccc(Cl)cc1)c1ccco1)NC1CCCC1 (stereo not given)
→ 1.03, 2.39
> Cc1cc(Br)ccc1NC(=O)CN(C)C(=O)COc1cccc2c1OC(C)(C)C2
→ 2.1, -0.65
> O=C(O)CC/C(=N/NC(=O)c1cn(-c2ccccc2)nc1-c1ccccc1)C(=O)O
→ 0.13, -0.51
> O=S(=O)(NC1CC2CCC1C2)c1ccc2c(c1)OCCO2 (stereo not given)
→ 0.73, -0.51
> CC(C)CNC(=O)CSc1nnc2ccccn12
→ 0.05, 1.53
> O=C1C2CC=CCC2C(=O)N1n1cnnc1 (stereo not given)
→ 0.02, 0.3
> CCOC(=O)CC1=NN(c2ccccc2)C(=O)/C1=C\c1ccc(OC)cc1OC
→ 1.54, -0.26
> O=C(NCc1cccs1)c1cc(-c2ccc(O)cc2)on1
→ 0.37, -0.95
> Nn1c(Cc2ccc(Br)cc2)n[nH]c1=S
→ 1.47, -1.31
> Cc1ccc(NC(=O)CCC(=O)OCCCC(F)(F)C(F)(F)F)cc1
→ 3.01, 0.93
> C=CCn1c(CCNC(=O)c2ccccc2F)nnc1SCc1nc2ccccc2c(=O)[nH]1
→ 1.96, 1.63
> CCCC(=O)N(Cc1cc(=O)[nH]c2ccccc12)c1ccccc1OC
→ 1.05, -2.46
> COc1cc(/C=C2\S/C(=N/S(=O)(=O)c3ccccc3)NC2=O)c([N+](=O)[O-])cc1OC
→ 3.2, 1.27
> O=C(Nc1ccccc1C(=O)O)c1cccc(NC(=O)c2ccccc2Cl)c1
→ 0.02, 1.76
> Cc1nnc(SCC(=O)NN2C(=O)NC3(CCCCC3)C2=O)s1
→ 1.28, 0.62
> Cc1nc(C(=O)Nc2ccc(F)cc2)nn1-c1ccc([N+](=O)[O-])cc1
→ 0.02, -1.83
> C=CCN1C(=O)/C(=C/c2ccc(OC)cc2)S/C1=N/c1nccs1
→ 0.06, 0.01
> CC(=O)c1c(C)[nH]c(C(=O)Nc2ccccc2Cl)c1C
→ 0.07, 0.05
> O=P(CCN1CCCCC1)(c1ccccc1)c1ccccc1
→ 2.18, -0.54
> CC1CCN(c2ccc([N+](=O)[O-])c(SCCO)c2)CC1
→ 0.98, 1.27
> O=C(Nc1nc(-c2nc3ccccc3s2)cs1)C1COc2ccccc2O1 (stereo not given)
→ 0.99, -1.53
> COc1ccc(Cc2nnc(NC(=O)c3ccccc3Cl)s2)cc1OC
→ 0.03, 1.73
> CCN(C(=O)CN1C(=O)c2ccc([N+](=O)[O-])cc2C1=O)C1CCCCC1
→ 0.68, -1.61
> Cc1ccnc(Sc2ccc([N+](=O)[O-])cn2)n1
→ 0.33, -2.18
> COc1ccnc(Oc2ccc(C)cc2C)c1C#N
→ 0.03, 0.28

3 entries from above, arranged by heavy-atom count, smallest number first.
Fields – KCNQ2 pot, KCNQ2 pot baseline
> Nn1c(Cc2ccc(Br)cc2)n[nH]c1=S
→ 1.47, -1.31
> O=C(O)CC/C(=N/NC(=O)c1cn(-c2ccccc2)nc1-c1ccccc1)C(=O)O
→ 0.13, -0.51
> C=CCn1c(CCNC(=O)c2ccccc2F)nnc1SCc1nc2ccccc2c(=O)[nH]1
→ 1.96, 1.63
